# Env fusion inh: inhibitors of HIV Env-mediated cell fusion; inhibition, % at 12.3 µM; HeLa-JRFL Env/CEM21 cell fusion, luciferase; actives 1.1% (n = 360,000);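 active = mean replicate inhibition score of at least 50 and every replicate individually at or above 50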;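 note: 0% = plate neutral controls and 100% = maraviroc near 300 nM; one replicate is shown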
# UUG fidelity: modulators of start codon recognition fidelity in yeast; S. cerevisiae UUG-firefly luciferase reporter, luminescence/redox ratio; activity score, % at 18.7 µM; actives 0.13% (n = 350,000); AID 602363;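 active = replicate mean at a twofold rise or more, about +100% in these data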;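 note: firefly luciferase made from a UUG start codon reports start codon fidelity; reporter light over untreated wells divided by growth signal over untreated wells; some hits fall short of that in this replicate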
# * hit, by the source's call; [ ] = another dose, or the depositor's remark.
Compound	Env fusion inh	UUG fidelity
O=C(CN1CCOCC1)N[C@H]1CC[C@@H](CCNS(=O)(=O)c2ccccc2F)O[C@H]1CO	21.8[16.7 µM]	-1.8
C[C@H](CO)N1C[C@H](C)[C@@H](CN(C)Cc2ccc3c(c2)OCO3)OCCCC[C@H](C)Oc2ccc(NS(C)(=O)=O)cc2C1=O	-10.6[16.7 µM]	1.5
COc1ccc(S(=O)(=O)N(C)C[C@H]2Oc3ccc(NC(=O)C4CC4)cc3CC(=O)N([C@@H](C)CO)C[C@@H]2C)cc1	37.9[16.7 µM]	-5.1
C[C@@H]1CN([C@@H](C)CO)C(=O)c2cc(NC(=O)c3ccccc3)ccc2O[C@@H](C)CCCCO[C@H]1CN(C)S(=O)(=O)c1cccs1	15.8[16.7 µM]	-3.2
C[C@H](O)C#Cc1cnc2c(c1)C(=O)N([C@H](C)CO)C[C@@H](C)[C@H](CN(C)Cc1cncnc1)O2	-2.0[16.7 µM]	3.4
C[C@H](CO)N1C[C@H](C)[C@@H](CN(C)Cc2ccc(Cl)c(Cl)c2)OCCCC[C@H](C)Oc2ccc(NS(=O)(=O)c3ccccc3)cc2C1=O	22.1[16.7 µM]	8.4
C[C@@H]1CN([C@@H](C)CO)S(=O)(=O)c2ccc(-c3ccncc3)cc2O[C@H]1CN(C)S(C)(=O)=O	-64.3[16.7 µM]	-8.3
C[C@@H]1CN([C@@H](C)CO)C(=O)Cc2cc(NC(=O)CCCN(C)C)ccc2O[C@@H]1CN(C)S(=O)(=O)c1cccs1	1.8[16.7 µM]	6.8
COc1ccccc1-c1ccc2c(c1)O[C@H](CN(C)C(=O)Nc1ccccc1)[C@@H](C)CN([C@H](C)CO)S2(=O)=O	7.6[16.7 µM]	-2.7
Cc1noc(C)c1NC(=O)Nc1ccc2c(c1)CC(=O)N([C@@H](C)CO)C[C@@H](C)[C@H](CN(C)S(=O)(=O)c1cn(C)cn1)O2	4.2[16.7 µM]	-12.6
CC(C)CC#Cc1ccc2c(c1)O[C@H](CN(C)C(=O)C1CCCCC1)[C@@H](C)CN([C@@H](C)CO)S2(=O)=O	22.1[16.7 µM]	-14.5
CCS(=O)(=O)N1[C@H](CO)[C@@H](c2ccc(C#CC(C)C)cc2)[C@@H]1C#N	12.3[16.7 µM]	4.1
COc1ccc(NC(=O)N(C)C[C@H]2Oc3ccc(NC(=O)Nc4ccc5c(c4)OCO5)cc3CC(=O)N([C@H](C)CO)C[C@H]2C)cc1	-19.0[16.7 µM]	6.9
CC(=O)N[C@H]1CC[C@H](CCNC(=O)Nc2ccc(C(F)(F)F)cc2)O[C@@H]1CO	9.2[16.7 µM]	2.6
COc1cccc(-c2cnc3c(c2)C(=O)N([C@@H](C)CO)C[C@@H](C)[C@@H](CN(C)C(=O)Nc2ccccc2F)O3)c1	6.4[16.7 µM]	31.3
COc1ccc(S(=O)(=O)Nc2ccc3c(c2)CC(=O)N([C@@H](C)CO)C[C@@H](C)[C@H](CN(C)C(=O)Nc2c(C)noc2C)O3)cc1	12.9[16.7 µM]	-13.2
O=C(Nc1ccc2c(c1)OCO2)N[C@H]1CC[C@@H](CCNC(=O)C2CCC2)O[C@H]1CO	0.4[16.7 µM]	-9.6
C[C@@H]1CN([C@@H](C)CO)C(=O)Cc2cc(NC(=O)C3CCCCC3)ccc2O[C@H]1CN(C)Cc1ccc(C(=O)Nc2ccccc2N)cc1	-19.0[16.7 µM]	9.8
CC(C)C#Cc1ccc2c(c1)O[C@H](CN(C)C(=O)c1ccccn1)[C@H](C)CN([C@@H](C)CO)S2(=O)=O	-4.2[16.7 µM]	-0.2
C[C@H](CO)N1C[C@H](C)[C@@H](CN(C)C(=O)Cc2ccccc2)OCc2cn(nn2)CCCC1=O	37.6	-3.4
CO[C@H]1CN(C)C(=O)c2ccc(NC(C)=O)cc2OC[C@@H](C)N(CC2CC2)C[C@@H]1C	3.2[16.7 µM]	-10.8
Cc1noc(C)c1S(=O)(=O)N(C)C[C@H]1Oc2ccc(NC(=O)Cc3ccccc3)cc2CC(=O)N([C@H](C)CO)C[C@H]1C	-16.7[16.7 µM]	3.4
C[C@H](CO)N1C[C@H](C)[C@@H](CN(C)C(=O)CN(C)C)Oc2cc(C#CC3CC3)ccc2S1(=O)=O	-1.1[16.7 µM]	5.9
C[C@H]1CN([C@@H](C)CO)C(=O)c2cccc(NC(=O)Nc3ccc(F)cc3)c2O[C@H]1CN(C)C(=O)Nc1ccc(C(F)(F)F)cc1	26.9[16.7 µM]	-11.5
CCCN1C[C@H](C)[C@@H](OC)CN(C)C(=O)c2ccc(NC(=O)COC)cc2OC[C@@H]1C	12.7[16.7 µM]	2.8
C[C@@H]1CCCCO[C@@H](CN(C)CC2CC2)[C@H](C)CN([C@@H](C)CO)C(=O)c2cc(NC(=O)Nc3ccc(F)cc3)ccc2O1	-1.2[16.7 µM]	20.1
COCC(=O)N(C)C[C@H]1Oc2ncc(-c3ccc(C)cc3)cc2C(=O)N([C@H](C)CO)C[C@@H]1C	-8.2[16.7 µM]	-6.6
Cc1ccc(S(=O)(=O)Nc2ccc3c(c2)C(=O)N([C@H](C)CO)C[C@@H](C)[C@H](CN(C)Cc2ccc(Cl)c(Cl)c2)OCCCC[C@H](C)O3)cc1	29.4[16.7 µM]	-13.3
CCC(=O)Nc1ccc2c(c1)OC[C@@H](C)N(Cc1cccc(F)c1)C[C@H](C)[C@@H](OC)CN(C)C2=O	-15.4[16.7 µM]	0.3
C[C@H](CO)N1C[C@H](C)[C@H](CN(C)Cc2ccc3c(c2)OCCN3C)OCc2cn(nn2)CCCC1=O	-10.7[16.7 µM]	-5.2
N#C[C@@H]1N[C@H](CO)[C@@H]1c1ccc(-c2ccccc2F)cc1	-22.4[16.7 µM]	-1.0
COCC#Cc1cnc2c(c1)C(=O)N([C@@H](C)CO)C[C@@H](C)[C@@H](CN(C)C(=O)c1cccnc1)O2	-1.6[16.7 µM]	-8.1
COc1ccc(CNC(=O)C[C@@H]2CC[C@@H]3[C@@H](COc4ccc(NC(=O)C5CC5)cc4C(=O)N3C)O2)cc1	-12.6[16.7 µM]	12.7
C[C@@H]1CCCCO[C@@H](CN(C)S(=O)(=O)c2ccc(F)cc2)[C@@H](C)CN([C@H](C)CO)C(=O)c2cc(NS(=O)(=O)c3ccc(Cl)cc3)ccc2O1	-25.6[16.7 µM]	6.7
Cc1noc(C)c1S(=O)(=O)Nc1ccc2c(c1)C(=O)N([C@H](C)CO)C[C@@H](C)[C@H](CN(C)S(=O)(=O)c1cn(C)cn1)O2	-99.9[16.7 µM]	-7.2
C[C@@H]1CCCCO[C@@H](CN(C)S(=O)(=O)c2ccc(Cl)cc2)[C@H](C)CN([C@H](C)CO)C(=O)c2cc(NC(=O)Nc3ccc4c(c3)OCO4)ccc2O1	3.5[16.7 µM]	3.6
COc1ccc(NC(=O)N(C)C[C@H]2OCCCC[C@H](C)Oc3ccc(NS(=O)(=O)c4cccs4)cc3C(=O)N([C@@H](C)CO)C[C@@H]2C)cc1	13.2[16.7 µM]	-0.9
O=C(C[C@@H]1C=C[C@@H](NC(=O)NC2CCCCC2)[C@H](CO)O1)NCc1ccc(Cl)cc1	-6.5[16.7 µM]	13.8
COc1ccc(NC(=O)O[C@@H](c2ccc(OCCO)cc2)[C@@H](C)CCO)cc1	7.9[16.7 µM]	-13.4
CCCC#Cc1cnc2c(c1)C(=O)N([C@H](C)CO)C[C@H](C)[C@H](CN(C)C(=O)c1cccc(F)c1)O2	7.8[16.7 µM]	5.7
C[C@H](CO)N1C[C@H](C)[C@H](CN(C)Cc2ccccc2)Oc2ncc(C#Cc3ccccn3)cc2C1=O	3.6[16.7 µM]	-14.9
C[C@@H]1CCCCO[C@H](CN(C)C(=O)CCC(F)(F)F)[C@@H](C)CN([C@H](C)CO)C(=O)c2cc(NS(C)(=O)=O)ccc2O1	-1.1[16.7 µM]	-9.0
C[C@H]1CN([C@@H](C)CO)C(=O)c2cc(-c3ccncc3)cnc2O[C@H]1CN(C)C(=O)Nc1ccc2c(c1)OCO2	-13.5[16.7 µM]	3.9
COc1ccc(S(=O)(=O)N(C)C[C@H]2Oc3ccc(NC(=O)NC4CCCCC4)cc3CC(=O)N([C@@H](C)CO)C[C@@H]2C)cc1	13.7[16.7 µM]	-12.2
C[C@H](CO)N1C[C@H](C)[C@@H](CN(C)Cc2ccncc2)Oc2ccc(NC(=O)C3CCCCC3)cc2C1=O	6.3[16.7 µM]	4.7
C[C@@H]1CN([C@@H](C)CO)C(=O)c2cc(NC(=O)c3ccccc3)ccc2O[C@@H](C)CCCCO[C@H]1CN(C)Cc1ccc(C(F)(F)F)cc1	18.0[16.7 µM]	23.8
C/C=C/c1cnc2c(c1)C(=O)N([C@@H](C)CO)C[C@H](C)[C@@H](CN(C)C(=O)Cc1ccccc1)O2	-1.6[16.7 µM]	7.3
C[C@@H]1CN([C@@H](C)CO)C(=O)c2cc(C3=CCCCC3)cnc2O[C@H]1CN(C)C(=O)Cc1ccncc1	-3.5[16.7 µM]	-13.4
C[C@H](CO)N1C[C@H](C)[C@H](CN(C)C(=O)Nc2ccc3c(c2)OCO3)Oc2c(NS(=O)(=O)c3ccc(F)cc3)cccc2C1=O	-42.8[16.7 µM]	-5.0
COc1ccc(NC(=O)Nc2ccc3c(c2)C(=O)N([C@H](C)CO)C[C@@H](C)[C@H](CN(C)S(=O)(=O)c2ccc(C)cc2)OCCCC[C@@H](C)O3)cc1	40.0[16.7 µM]	-4.7
CCC(=O)N(C)C[C@H]1Oc2cc(-c3ccc(C)cc3)ccc2S(=O)(=O)N([C@@H](C)CO)C[C@H]1C	3.3[16.7 µM]	3.8
C[C@H]1CN([C@@H](C)CO)C(=O)Cc2cc(NS(=O)(=O)c3cn(C)cn3)ccc2O[C@H]1CN(C)C(=O)Nc1ccccc1	5.9[16.7 µM]	-18.6
O=C(C[C@@H]1CC[C@H]2[C@@H](COC[C@H](O)CN2C(=O)Nc2ccc(F)cc2)O1)NCCc1ccccc1	-17.3[16.7 µM]	4.8
C[C@@H]1CN([C@@H](C)CO)S(=O)(=O)c2ccc(/C=C/c3ccccc3)cc2O[C@H]1CN(C)Cc1cncnc1	18.9[16.7 µM]	-8.2
C[C@@H]1CCCCO[C@H](CN(C)C(=O)c2ccncc2)[C@H](C)CN([C@H](C)CO)C(=O)c2cc(NS(=O)(=O)c3ccc(Cl)cc3)ccc2O1	-10.2[16.7 µM]	27.7
COc1ccc(-c2cnc3c(c2)C(=O)N([C@H](C)CO)C[C@H](C)[C@H](CN(C)S(=O)(=O)c2cn(C)cn2)O3)cc1	-2.9[16.7 µM]	-6.4
C[C@H](O)C#Cc1ccc2c(c1)O[C@H](CN(C)Cc1cncnc1)[C@@H](C)CN([C@H](C)CO)S2(=O)=O	-11.5[16.7 µM]	3.7
C[C@H]1CN([C@@H](C)CO)C(=O)Cc2cc(NC(=O)Cn3cnnn3)ccc2O[C@@H]1CN(C)C(=O)Nc1ccc2c(c1)OCO2	-2.7[16.7 µM]	-3.9
COc1ccc(-c2cnc3c(c2)C(=O)N([C@@H](C)CO)C[C@H](C)[C@H](CN(C)C(=O)CN(C)C)O3)cc1	-1.5[16.7 µM]	-0.7
C[C@@H]1CN([C@@H](C)CO)S(=O)(=O)c2ccc(-c3cccc(F)c3)cc2O[C@H]1CN(C)S(C)(=O)=O	36.1[16.7 µM]	6.5

# 5 compounds picked at random from the list so far:
Compound	Env fusion inh	UUG fidelity
COc1ccc(S(=O)(=O)N(C)C[C@H]2Oc3ccc(NC(=O)NC4CCCCC4)cc3CC(=O)N([C@@H](C)CO)C[C@@H]2C)cc1	13.7[16.7 µM]	-12.2
O=C(C[C@@H]1CC[C@H]2[C@@H](COC[C@H](O)CN2C(=O)Nc2ccc(F)cc2)O1)NCCc1ccccc1	-17.3[16.7 µM]	4.8
CCC(=O)N(C)C[C@H]1Oc2cc(-c3ccc(C)cc3)ccc2S(=O)(=O)N([C@@H](C)CO)C[C@H]1C	3.3[16.7 µM]	3.8
C[C@H](CO)N1C[C@H](C)[C@H](CN(C)C(=O)Nc2ccc3c(c2)OCO3)Oc2c(NS(=O)(=O)c3ccc(F)cc3)cccc2C1=O	-42.8[16.7 µM]	-5.0
C[C@H](CO)N1C[C@H](C)[C@H](CN(C)Cc2ccccc2)Oc2ncc(C#Cc3ccccn3)cc2C1=O	3.6[16.7 µM]	-14.9

# The list goes on.
Compound	Env fusion inh	UUG fidelity
C[C@@H]1CN([C@@H](C)CO)C(=O)c2cc(NC(=O)Nc3ccccc3)ccc2O[C@@H](C)CCCCO[C@@H]1CN(C)C(=O)Nc1cccc2ccccc12	-37.6[16.7 µM]	18.0
CO[C@@H]1CN(C)C(=O)c2cc(NS(=O)(=O)c3ccccc3C)ccc2OC[C@@H](C)N(C)C[C@@H]1C	17.7[16.7 µM]	-8.7
C[C@@H]1CN([C@H](C)CO)S(=O)(=O)c2ccc(C#CC3CC3)cc2O[C@@H]1CN(C)C(=O)Cc1ccncc1	9.5[16.7 µM]	-8.3
C[C@@H]1CCCCO[C@@H](CN(C)CC2CCCCC2)[C@@H](C)CN([C@H](C)CO)C(=O)c2cc(N(C)C)ccc2O1	0.7[16.7 µM]	6.5
C[C@@H]1CN([C@@H](C)CO)C(=O)c2cc(NS(=O)(=O)c3ccc(F)cc3)ccc2O[C@@H](C)CCCCO[C@H]1CN(C)C(=O)c1ccccc1	-49.2[16.7 µM]	17.8
O=C(C[C@H]1CC[C@@H]2[C@H](COC[C@@H](O)CN2S(=O)(=O)c2ccc(F)cc2)O1)NCC1CCCCC1	-6.9[16.7 µM]	6.7
CC(C)c1cn(CC[C@H]2CC[C@H](NC(=O)C3CCCCC3)[C@H](CO)O2)nn1	-11.0[16.7 µM]	-7.0

# Screening results deposited in PubChem BioAssay by Broad Institute.

# The list is partial; the hit share may differ from the screen's.
